Source: PubChem BioAssay (several laboratories)
ALR inh: human ALR oxidase inhibition via reduced H2O2; inhibition, % (no concentration beside the values); P55789; purified ALR, DTT oxidation, H2O2 HRP-luminol luminescence; 290,000 tested, 3.8% active;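 active = mean and each replicate at 75% or more; inconclusive = only one of the two met; inactive = neither met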;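 also: stock transfer was 7.5 nL into about 7.5 µL; 0% = neutral wells and 100% = wells with inactivated enzyme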
RanGTP-Impb inh: disruptors of Ran-importin-beta complex formation – biochemical, FRET, CFP-Ran, YFP-importin-beta, homogeneous, primary screen; cell-free CFP-Ran/YFP-importin-beta FRET ratio; inhibition, % (test concentration not listed); 300,000 tested, 1.1% active;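 active = most replicates above 15%; inconclusive = exactly half above 15%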;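 also: 0% = DMSO wells and 100% = Ran loaded with GDP instead of GTP; wells of about 40 µL received 100 nL stock; the first replicate is given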
Beta2AR agonist: agonists of human beta-2 adrenergic receptor inducing internalization; P07550; Am2.2-beta2AR cells, FAP receptor internalization, flow cytometry; reference of the scale not given here; response, % (test concentration not listed); 340,000 tested, 0.43% active;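 active = response above a set limit, near 3 SD of response in nonfluorescent compounds, cut at about 42% in these data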;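 also: stock transfer was 100 nL into about 11 µL; a reference agonist was the positive control; negative values mostly stem from fluorescent compounds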
Target sequence (P07550 whole entry, looked up): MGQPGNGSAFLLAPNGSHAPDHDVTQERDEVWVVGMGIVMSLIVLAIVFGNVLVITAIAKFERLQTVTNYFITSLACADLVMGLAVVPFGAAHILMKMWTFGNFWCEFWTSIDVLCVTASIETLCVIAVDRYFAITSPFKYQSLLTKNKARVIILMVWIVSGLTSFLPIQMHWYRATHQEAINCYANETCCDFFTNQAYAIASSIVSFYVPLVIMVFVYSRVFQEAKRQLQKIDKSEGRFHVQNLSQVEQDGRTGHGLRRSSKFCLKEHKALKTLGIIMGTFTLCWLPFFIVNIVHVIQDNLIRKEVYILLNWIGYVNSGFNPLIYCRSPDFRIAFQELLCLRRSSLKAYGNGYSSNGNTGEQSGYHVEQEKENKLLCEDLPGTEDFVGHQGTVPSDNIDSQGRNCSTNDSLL
LANA-H2B inh: blocks KSHV LANA binding to histone H2A/H2B | Q9QR71 | cell-free LANA-H2A/H2B peptide, fluorescence polarization | inhibition, % (test concentration not listed) | 320,000 tested, 0.6% active; in the data active = inhibition mostly above about 10%, no sharp cut-off; inactive = mostly below about 6.7%;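 also: stock transfer was 7.5 nL into about 10 µL; 0% = median of vehicle wells and 100% = median of positive control wells; one replicate is shown; the record names a cut of 25% in any replicate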
HNF4A DNA FP: change in binding of human HNF4 alpha to DNA. HNF4a-FITC DNA binding, fluorescence polarization, 1 h. activity change, % at 10 µM. 360,000 tested, 0.3% active. AID 1224865; in the data active = activity change above about 30%, passing the limit was not always enough;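 also: controls were the assay level and a saturating level of protein; the project sought stronger binding though the title names inhibitors; some compounds called inactive have numbers as strong as hits; positive values seem to mean higher polarization but the record does not say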
Target sequence (P41235 whole entry, looked up): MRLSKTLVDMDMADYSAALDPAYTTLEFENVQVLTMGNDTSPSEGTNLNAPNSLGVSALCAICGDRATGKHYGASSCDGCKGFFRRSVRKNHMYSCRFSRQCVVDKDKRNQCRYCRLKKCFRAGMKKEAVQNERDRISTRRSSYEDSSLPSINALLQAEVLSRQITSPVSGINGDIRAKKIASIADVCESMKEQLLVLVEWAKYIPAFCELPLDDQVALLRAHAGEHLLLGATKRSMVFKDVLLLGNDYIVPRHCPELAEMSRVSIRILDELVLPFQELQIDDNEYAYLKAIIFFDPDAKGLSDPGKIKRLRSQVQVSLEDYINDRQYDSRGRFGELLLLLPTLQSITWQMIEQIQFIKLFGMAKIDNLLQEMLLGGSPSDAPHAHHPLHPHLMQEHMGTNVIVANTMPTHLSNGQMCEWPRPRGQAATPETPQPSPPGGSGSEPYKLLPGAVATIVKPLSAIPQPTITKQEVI
Calb FLC: affects C. albicans growth with fluconazole | C. albicans CaCi-2 (fluconazole-resistant clinical isolate) + fluconazole, Alamar Blue growth, 48 h | growth inhibition, % (no concentration beside the values) | 300,000 tested, 0.57% active | AID 1979;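 active = most replicates above 75%; inconclusive = exactly half above 75%; inactive = most below 75%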;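 also: all wells also contain fluconazole at 8 µg/ml as a sub-toxic cotreatment; 0% = median of DMSO wells and 100% = median of geldanamycin control wells; wells of about 8 µL received 7.5 nL stock; the first replicate is given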
Vif A3G: HIV-1 Vif–A3G interaction blockers – biochemical, TR-FRET, GST-Vif 1-94, biotin-A3G peptide, dose response retest, primary screen (AID 1117319) | TR-FRET GST-Vif / biotin-A3G peptide binding; higher % means a stronger effect; test concentration not given here; strong numbers were not always called active | inhibition, %, or IC50 in µM where a hit was titrated | 260,000 tested, 0.57% active;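 active = above the screen mean plus three standard deviations and confirmed in dose response; inconclusive = results disagree or hit not tested in dose response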;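 also: Vif residues 1-94 fused to GST binding biotinylated APOBEC3G peptide 110-148; 0% = full assay without inhibitor and 100% = GST in place of GST-Vif; retest series ran down from 100 µM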
* = called active by the depositor; ? = inconclusive; . = not tested or not shown.

SMILES	ALR inh	RanGTP-Impb inh	Beta2AR agonist	LANA-H2B inh	HNF4A DNA FP	Calb FLC	Vif A3G
COC(=O)c1ccc(Cl)c(NC(=O)CN2CCC(C)CC2)c1	-3.4	-1.4	-2.7	-1.8	1.7	-21.5	-1.4%
Cc1ccc(S(=O)(=O)N(C)CC(=O)O/N=C(\N)c2cccnc2)cc1	-3.2	-3.2	-1.6	-0.4	2.6	8.7	.
Cc1ccc(C(=O)NCC2CCCO2)cc1[N+](=O)[O-] (configuration not stated)	-13.7	-0.9	-6.5	-3.0	2.0	5.7	11.5%
CCc1cc(C(=O)Cc2cnn(-c3ccccc3)c2)c(O)cc1O	24.1	4.9	2.5	-5.4	3.1	5.8	3.4%
Cc1ccc(CN2CCN(Cc3ccccc3-c3ccco3)CC2CCO)o1 (configuration not stated)	-16.4	2.4	7.3	1.5	4.4	-0.2	.
COc1ccc(C(NC(=O)CNC(C)=O)C(=O)Nc2ccc3c(c2)OCCO3)cc1 (configuration not stated)	4.8	-2.9	9.0	1.1	-3.3	-13.4	25.7%
Cc1ccc(S(=O)(=O)N2CCCCC2C(=O)N2CCN(Cc3ccccc3)CC2)cc1 (configuration not stated)	-13.6	-2.4	0.2	2.1	-5.1	8.1	?
O=S(=O)(CCSc1nc2ccccc2s1)c1nc2ccccc2s1	7.4	-1.0	10.9	-17.9	0.5	-9.0	-3.2%
Cc1cccc2c1cnn2C(=O)Nc1ccccc1Br	.	4.6	-0.1	7.0	4.2	4.1	-4.8%
Cn1nc(-c2ccc(Cl)cc2)c2cc(C(=O)NCc3ccco3)sc21	86.8*	2.8	-5.4	0.9	3.1	10.3	-0.5%
Cc1ccc(S(=O)(=O)NCc2cccnc2)cc1	-8.2	-5.9	-4.9	-4.4	3.8	0.0	.
CCOC(=O)N1CCN(S(=O)(=O)c2ccc3c(c2)C(C)C(=O)N3)CC1 (configuration not stated)	-3.7	.	1.1	-2.5	5.0	.	73.6%
CCC(Sc1ccccc1C(=O)O)C(=O)O (configuration not stated)	-4.1	-1.0	4.9	4.8	5.4	2.4	5.4%
Cc1cc(=O)oc2cc(OCC(=O)N3CCC(C(N)=O)CC3)ccc12	-27.5	3.8	1.2	2.8	2.4	0.0	.
COC(=O)c1scc(C#N)c1N/N=C(\C#N)S(=O)(=O)c1ccc(Cl)cc1	51.1	3.7	0.1	2.6	1.7	0.4	5.3%
Cc1nc(P(=O)(c2ccccc2)c2ccccc2)c(N2CCOCC2)o1	3.4	-2.1	2.0	-5.4	1.5	-4.6	-4.7%
Cc1noc(C)c1C(=O)NCc1ccccc1	4.7	3.6	-2.7	-2.8	-2.0	6.7	-2.0%
COc1cc(-c2nc(Cc3ccccc3Cl)no2)cc(OC)c1OC	-9.9	2.6	9.5	1.2	-2.5	5.2	0.8%
O=C1NN(c2ccc(F)c(Cl)c2)C(=O)/C1=C\c1cccc(OC(=O)c2cccs2)c1	-8.8	-3.7	1.5	-2.5	-3.2	-16.2	4.2%
Cc1onc(-c2ccccc2)c1C(=O)OCC(=O)Nc1ccc(C#N)cc1	2.0	.	-4.4	-3.7	0.3	.	-1.8%
CCc1ccc(NC(=O)c2[nH]c(C)c(C(C)=O)c2C)cc1	.	1.3	-1.7	-4.0	3.9	3.9	.
CCN1CCN(C(=O)C2c3cc(OC)c(OC)cc3C(=O)N3CCc4ccccc4C23)CC1 (configuration not stated)	2.7	-0.2	-8.1	-11.7	0.6	-0.4	0.9%
O=C1CN(C(=O)COC(=O)CNC(=O)c2ccc(Br)o2)c2ccccc2N1	0.4	4.3	0.9	0.4	2.4	4.1	.
O=C(N/N=C/c1ccc([N+](=O)[O-])s1)c1ccccc1Br	-17.1	-0.2	2.7	-0.1	1.5	6.1	6.4%
CSc1ccc(Cl)c(C(=O)OCC(=O)N2CCN(C(=O)c3ccco3)CC2)c1	-1.5	.	-3.1	17.9	0.9	.	15.0%

Ordered by heavy-atom count (lowest first): part of the list above
SMILES	ALR inh	RanGTP-Impb inh	Beta2AR agonist	LANA-H2B inh	HNF4A DNA FP	Calb FLC	Vif A3G
CCC(Sc1ccccc1C(=O)O)C(=O)O (configuration not stated)	-4.1	-1.0	4.9	4.8	5.4	2.4	5.4%
O=C(N/N=C/c1ccc([N+](=O)[O-])s1)c1ccccc1Br	-17.1	-0.2	2.7	-0.1	1.5	6.1	6.4%
COC(=O)c1ccc(Cl)c(NC(=O)CN2CCC(C)CC2)c1	-3.4	-1.4	-2.7	-1.8	1.7	-21.5	-1.4%
O=S(=O)(CCSc1nc2ccccc2s1)c1nc2ccccc2s1	7.4	-1.0	10.9	-17.9	0.5	-9.0	-3.2%
Cn1nc(-c2ccc(Cl)cc2)c2cc(C(=O)NCc3ccco3)sc21	86.8*	2.8	-5.4	0.9	3.1	10.3	-0.5%
Cc1nc(P(=O)(c2ccccc2)c2ccccc2)c(N2CCOCC2)o1	3.4	-2.1	2.0	-5.4	1.5	-4.6	-4.7%
O=C1CN(C(=O)COC(=O)CNC(=O)c2ccc(Br)o2)c2ccccc2N1	0.4	4.3	0.9	0.4	2.4	4.1	.

Carrying on.
SMILES	ALR inh	RanGTP-Impb inh	Beta2AR agonist	LANA-H2B inh	HNF4A DNA FP	Calb FLC	Vif A3G
CC(=O)O[C@@H]1[C@@H](OC(C)=O)[C@H](n2ccc3cc([N+](=O)[O-])ccc32)OC[C@@H]1OC(C)=O	-7.7	1.0	2.7	-3.2	2.5	-3.1	11.9%
CN(Cc1ccc(F)cc1)C(=O)CNC(=O)c1ccc2c(c1)OCO2	2.7	-0.1	-8.0	7.1	-0.3	0.1	-4.4%
COc1cccc(CN(C)C(c2ccccc2)c2ccccc2)c1OC	-1.1	5.8	3.5	1.7	0.1	-17.0	-10.6%
CCOC(=O)N1CCN(Cc2nc(-c3cccc(Cl)c3)no2)CC1	-11.4	-1.8	-1.0	-0.2	2.7	14.5	.
CC(C)(C)c1cc(NC(=O)Nc2ccc(Cl)cc2Cl)no1	-3.6	2.9	5.1	-3.6	-3.8	1.1	-8.1%
COc1ccc(C2C3=C(CC(C)(C)CC3=O)Nc3nc(C)nn32)cc1OC (configuration not stated)	-4.1	-0.5	-3.8	-0.1	-4.7	-5.4	-3.8%
O=C1C[C@@H](c2ccc(O[C@@H]3O[C@H](CO)[C@@H](O)[C@H](O)[C@H]3O)cc2)Oc2cc(O)ccc21	.	2.4	-3.1	0.7	1.8	-5.0	?
CCCCOc1ccc(/C=N/NC(=S)Nc2cccc(C)c2C)cc1	-14.7	0.4	8.9	13.1	-1.7	8.6	-0.7%
CCC(C)C(NC(=O)c1ccccc1NC(=O)c1ccco1)C(=O)NC1CCCCC1 (configuration not stated)	4.9	1.0	8.4	1.1	-0.4	2.6	2.9%
O=C(C1CCN(S(=O)(=O)c2ccc(Cl)cc2)CC1)N1CCCC1	-8.8	4.4	-4.8	0.4	1.6	6.4	.
COc1cccc(/C=N/NC(=S)Nc2cccnc2)c1	16.1	1.8	-1.7	-2.1	-1.2	23.6	2.0%
N#C/C(=C\Nc1ccccc1SC(F)(F)F)c1nc(-c2ccc(F)cc2)cs1	-15.7	-0.2	4.3	-2.3	-2.8	10.3	.
COc1ccc(-c2cc(NC(=O)c3cncn3-c3ccccc3)ccc2OC)cc1	-2.3	5.7	-3.4	4.7	3.3	5.8	-5.5%
COc1ccc(N2CCN(C(=O)CCCC3=NS(=O)(=O)c4ccccc4N3)CC2)cc1	47.3	0.6	3.3	-3.1	1.2	-5.7	1.2%
O=C(CC1CCCCC1)Nc1nc2ccccc2s1	1.0	2.6	-10.4	2.8	4.8	-22.9	-9.8%
CCc1[nH]nc(C(=O)N2CCCC(Nc3cccc(F)c3)C2)c1C (configuration not stated)	98.9*	6.0	2.8	-4.3	-1.3	-5.3	.
CC(=O)Nc1ccc(S(=O)(=O)Oc2ccc(C(=S)N3CCC(O)CC3)cc2)cc1	-1.1	3.8	-0.7	4.0	-0.9	11.5	-0.9%
COc1ccc(CCNC(=O)Nc2ccc3c(c2)OCO3)cc1OC	-1.1	-0.7	5.9	-2.5	4.7	-15.1	-1.7%
CCN(CC)S(=O)(=O)c1ccc(NC2c3ccccc3C(=O)N2Cc2ccco2)cc1 (configuration not stated)	-1.6	2.0	-3.5	1.5	-3.2	-9.6	2.9%
COc1ccc2nc(NC(=O)CS(=O)(=O)c3ccc(C)cc3)sc2c1	-9.2	-0.2	2.6	-5.4	1.4	4.0	.
Cn1nnnc1SCC(=O)NNC(=O)c1ccc(F)cc1	-6.8	-0.7	-2.0	2.9	0.0	-6.7	2.7%
Cc1cc(-c2ccccc2)nc2cc(C(=O)NCc3ccco3)nn12	93.0*	1.1	-8.6	-5.7	-4.4	4.3	-4.5%
Cc1cc(SCc2ccc(Cl)cc2)nc(=O)[nH]1	-2.6	-1.2	0.7	-3.1	2.4	-4.6	4.0%
Cc1ccc(OCC(=O)OCC(=O)c2c(N)n(C)c(=O)n(C)c2=O)cc1C	18.0	4.1	6.3	1.4	-4.6	-3.5	28.4%
OCCNc1nc(NCCC2=CCCCC2)nc(N2CCOCC2)n1	-14.9	3.3	5.5	-7.0	1.2	-6.3	9.5%
SMILES	ALR inh	RanGTP-Impb inh	Beta2AR agonist	LANA-H2B inh	HNF4A DNA FP	Calb FLC	Vif A3G
CCC(CC)NC(=O)Cc1ccc(S(=O)(=O)N2CCOCC2)s1	.	1.6	0.7	1.6	6.9	13.4	0.2%
COCCCNC(=O)CSc1nc2ccc(N3CCOCC3)cc2c(=O)n1CCc1ccccc1	-23.2	0.8	-4.9	1.6	5.3	15.5	5.6%
COc1cccc(N2CCN(C(=O)CN3C(=O)NC4(CCCC4)C3=O)CC2)c1	9.3	5.1	-0.9	-1.9	-5.2	4.8	.
COc1ccc(NC2CCCN(C(=O)CCc3cn[nH]c3)C2)cc1 (configuration not stated)	98.9*	2.0	0.4	-1.2	-4.0	4.0	.
CC(C)(C)c1ccccc1OCCCCN1CCCC1	-0.3	1.8	4.3	4.7	0.4	-8.0	7.9%
Cc1cc(-c2n[nH]c(=S)n2/N=C/c2cccc([N+](=O)[O-])c2)n[nH]1	97.1*	2.5	6.8	4.0	-4.8	1.6	16.7%
O=C(Nc1cccc(-c2nc3cccnc3s2)c1)c1cccnc1Cl	-2.4	1.8	37.2	-5.6	2.1	26.6	1.1%
O=C(Nc1ccc(Cl)cc1)N1CCc2ccccc2C1	-1.6	-3.2	-9.4	0.4	-6.1	-5.3	7.0%
Cc1ccccc1NC(=O)CN1CCC(n2nnc3ccccc32)CC1	-16.0	-2.0	-3.1	-2.4	-1.1	-7.6	-2.2%
COc1ccc(CNC(=S)N2CCN(Cc3ccccc3)CC2)cc1	-56.3	1.0	33.9	0.9	-1.3	1.5	2.5%
Cc1ccc(C(=O)N2CCCC(N3CCN(c4cccc(C(F)(F)F)c4)CC3)C2)s1 (configuration not stated)	0.8	0.9	6.3	2.9	3.2	-3.4	-4.2%
O=C(Cn1nnc2c(cnn2-c2ccc(F)cc2)c1=O)Nc1ccccc1C(F)(F)F	.	2.7	-4.5	2.0	5.8	24.5	.
